# Screening results: PubChem BioAssay, several laboratories
# Arbovirus inh – blocks arbovirus infection; inhibition, % at 10 µM; AID 1251; 0.37% of 200,000 active; arbovirus infection cell-based antiviral screen;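 active means inhibition from about 30%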;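 further: bluetongue infection of BSR cells; cell survival read as ATP light after 72 h; 0% = infected wells without compound and 100% = uninfected wells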
# Mtb growth – M. tuberculosis H37Rv growth inhibitors, H37Rv strain (AID 1626); inhibition, % at 10 µM; hits with a dose series show IC50 in µM; 0.95% of 220,000 active; M. tuberculosis H37Rv growth inhibition; higher % means a stronger effect;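 active means confirmed in a dose series; inconclusive means inhibition above 80% but not taken into the dose series; inactive means below 80% or under 30% at every dose of the series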;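 further: bacteria incubated seven days before Alamar blue readout; 0% = bacteria only wells and 100% = bacteria with antibiotic wells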
# Mtb bLac sens – beta-lactam sensitization of Mtb H37Rv. M. tuberculosis H37Rv growth with meropenem, percent inhibition; hits of this screen are not shown here. inhibition, % at 25 µM. 0.27% of 330,000 active. AID 434955;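 active means about 74% or more and at least 40 points above the plate without the antibiotic, then above 30% in a dose series; inconclusive means first-round hits that could not be retested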;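 further: growth measured after seven days incubation then overnight dye step; 0% = bacteria only wells and 100% = bacteria with antibiotic; twin plates without the antibiotic show which effects depend on it; some results filed as inactive read as strong as hits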
# RecA splice inh – Mtb RecA intein splicing inhibition; P9WHJ3; cell-free RecA intein splicing, fluorescence; inhibition, %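 (about 9 µM by stock and volumes)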; 0.75% of 290,000 active; AID 2221; in the data active means inhibition above about 30%; inconclusive means no clear call, values can overlap the other calls;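 further: 0% = vehicle wells and 100% = reference inhibitor control wells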
# Target sequence (P9WHJ3 whole entry, looked up, canonical isoform): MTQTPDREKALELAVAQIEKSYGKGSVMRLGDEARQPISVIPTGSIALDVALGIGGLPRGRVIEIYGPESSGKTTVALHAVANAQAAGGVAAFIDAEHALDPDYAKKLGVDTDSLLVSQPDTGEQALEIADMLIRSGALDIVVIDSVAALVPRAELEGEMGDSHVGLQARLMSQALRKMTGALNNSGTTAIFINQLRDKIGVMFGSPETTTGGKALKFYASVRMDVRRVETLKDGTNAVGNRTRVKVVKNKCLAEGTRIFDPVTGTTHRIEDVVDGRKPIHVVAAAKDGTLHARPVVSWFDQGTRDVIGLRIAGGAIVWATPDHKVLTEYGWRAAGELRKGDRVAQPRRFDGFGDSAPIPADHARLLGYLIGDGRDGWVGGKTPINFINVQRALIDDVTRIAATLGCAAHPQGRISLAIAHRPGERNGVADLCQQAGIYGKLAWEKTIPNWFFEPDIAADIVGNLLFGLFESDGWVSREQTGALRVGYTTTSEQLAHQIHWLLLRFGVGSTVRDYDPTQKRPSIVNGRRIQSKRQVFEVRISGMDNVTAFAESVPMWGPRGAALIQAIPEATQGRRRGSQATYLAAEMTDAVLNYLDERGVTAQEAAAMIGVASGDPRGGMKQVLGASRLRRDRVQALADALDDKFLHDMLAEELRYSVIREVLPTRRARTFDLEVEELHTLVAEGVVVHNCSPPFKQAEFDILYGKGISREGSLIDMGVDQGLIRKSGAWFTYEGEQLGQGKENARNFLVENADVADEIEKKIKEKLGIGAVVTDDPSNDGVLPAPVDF
# YopH inh – inhibitors of Yersinia enterocolitica YopH tyrosine phosphatase; 0.16% of 140,000 active; inhibition, %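 (about 10 µM by stock and volumes)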; fluorescence Ex485/Em525;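 active means inhibition of 50% or more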;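 further: controls were vehicle for no effect and minimum signal wells for full effect; inactives centre near -20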
# Arbovirus inh repeat – also measured in Arbovirus inh; calls as there; inhibition, %; measured here: 10K subset replicate screen; many hits read low in the repeat;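 first of two repeat runs on a subset; 0% = infected and 100% = uninfected wells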
# Numbers without * were called inactive; ? = inconclusive; . = no result given.
SMILES,Arbovirus inh,Mtb growth,Mtb bLac sens,RecA splice inh,YopH inh,others
CC(C)OCCCNC(=O)COCC(=O)Nc1ccc(OCCc2ccccc2)cc1,.,.,80,0.1,.,
CCc1ccc(NC(=S)N2CCN(c3cccc(OC)c3)CC2)cc1,7,0%,4,-2.3,.,
COc1ccc(C2/C(=C(/O)c3ccc4c(c3)CC(C)O4)C(=O)C(=O)N2Cc2cccnc2)cc1 (stereo not given),.,.,-12,0.9,.,
CN1CCN(C(=O)C2CCC(=O)N(CCc3cccc(F)c3)C2)CC1 (stereo not given),.,.,?,0.8,.,
N/C(=N\O)c1ccc(N2CCN(c3ncccc3C(F)(F)F)CC2)nc1,.,-3%,1,3.1,.,
CC(=O)Nc1ccc2nc(CN3CCN(CC=C(C)C)C(CCO)C3)ccc2c1 (stereo not given),-2,2%,1,-1.2,.,
COc1ccc(C(=O)NCCc2ccc(S(N)(=O)=O)cc2)cc1OC,4,-6%,-5,-2.8,-39,
CC1=NC(C)(C)Cc2c(C)cccc21,3,2%,2,-2.0,.,
Cc1ccc(F)cc1NC(=O)CN1C(=O)NC2(CCCc3ccccc32)C1=O (stereo not given),.,.,-4,1.5,.,
CCCN1C(=O)/C(=C/c2ccc3c(c2)OCO3)NC1=S,-1,-9%,.,.,.,
O=C(CCNC(=O)C1CCN(S(=O)(=O)c2ccccc2)CC1)NCc1ccccc1Cl,.,.,5,-1.6,.,
NS(=O)(=O)c1ccc(CCNC(=O)CCc2nc3ccccc3s2)cc1,.,.,10,1.7,.,

# 3 records picked at random from those above:
SMILES,Arbovirus inh,Mtb growth,Mtb bLac sens,RecA splice inh,YopH inh,others
NS(=O)(=O)c1ccc(CCNC(=O)CCc2nc3ccccc3s2)cc1,.,.,10,1.7,.,
CCCN1C(=O)/C(=C/c2ccc3c(c2)OCO3)NC1=S,-1,-9%,.,.,.,
CCc1ccc(NC(=S)N2CCN(c3cccc(OC)c3)CC2)cc1,7,0%,4,-2.3,.,

# The list continues.
SMILES,Arbovirus inh,Mtb growth,Mtb bLac sens,RecA splice inh,YopH inh,others
CCOC(=O)NC(NCc1ccccc1)(C(F)(F)F)C(F)(F)F,5,-2%,-2,0.2,-37,
CNCCOc1ccc(Cl)c(Cl)c1,-17,-1%,-2,-1.2,.,
O=C(CNC(=O)c1ccccc1F)OCC(=O)N1CCCc2ccccc21,-3,-19%,4,-2.1,-52,
O=C(Cc1nc2ccccc2[nH]1)N/N=C/c1ccccc1,3,-6%,11,2.7,-14,
O=C(NC(=O)c1ccc(Cl)cc1)OC1CCCCC1,1,4%,-3,1.2,-10,
CC[C@@H](C)[C@@H](C(=O)N1CCN(C(=O)OC(C)(C)C)CC1)n1cc(CCCCNC(=O)OC(C)(C)C)nn1,-3,8%,-4,-0.7,.,
Cc1ccc(N2CC(C(=O)N3CCC(C(=O)Nc4nncs4)CC3)CC2=O)cc1 (stereo not given),.,.,-2,-2.2,.,
Cc1ccc(OC(C)C(=O)N2CCCc3ccccc32)cc1 (stereo not given),5,-4%,1,3.2,0,
Cc1ccc(SCc2ccc(C(=O)N3CCCCC3)cc2)cc1,0,5%,2,8.2,.,
Cc1cccc(N(CC(=O)NCc2ccco2)C(=O)CCC(=O)Nc2ccccn2)c1C,.,.,7,0.8,.,
S=C(NCCc1cccc(Cl)c1)NCc1ccccc1,.,.,5,7.2,.,
O=C1Nc2ccccc2/C1=C/c1ccccc1F,.,.,5,1.9,.,
CC(=O)Nc1ccc(-c2cc(NC(C)=O)n(-c3ccccc3)n2)cc1,-2,-2%,2,-0.4,7,Arbovirus inh repeat=3
CC(=O)c1cccc(NC(=O)C2CCN(S(=O)(=O)c3ccccc3)CC2)c1,12,1%,-2,-6.0,-1,
CN=C(Nc1cccc(Cl)c1)SC1CC(=O)N(c2ccc(OC)cc2)C1=O (stereo not given),-4,7%,0,.,.,
COc1ccc(C2N=C(N)N=C(N)N2c2ccccc2OC)cc1OC (stereo not given),7,-6%,-3,.,-4,
C=C(C)n1c(=O)n(Cc2ccc(C)cc2)c2ccccc21,.,.,3,4.9,.,
COc1ccc(S(=O)(=O)CCC(=O)NCCc2ccc(C)cc2)cc1,4,-9%,-5,2.0,-5,
O=C(/C=C/c1c(Cl)cccc1Cl)Nc1ccncc1,-24,5%,3,-4.8,-1,
COc1ccc(/C=N/NS(=O)(=O)c2ccccc2)cc1OS(=O)(=O)c1ccccc1,-7,7%,8,4.6,-30,
COc1ccc(NC(=O)C2CCN(S(C)(=O)=O)CC2)cc1,5,-1%,-5,-0.5,-12,
COc1ccc(C2Nc3ccccc3C(=O)N2NC(=O)c2ccccc2)cc1OC (stereo not given),3,3%,-1,1.2,.,
CC(C)CC1Nc2ncnc(N3CCN(c4ccccc4)CC3)c2N(Cc2ccc(Cl)cc2)C1=O (stereo not given),.,.,16,8.2,.,
Clc1ccc(COc2ccccc2CNCc2cccnc2)cc1,1,2%,2,0.6,-22,
CCOC(=O)c1c(NC(C)=O)sc(/C(C)=N/Nc2ccc(C(=O)O)cc2)c1C,.,.,?,-4.4,.,
Cc1ccc(-n2nnnc2-c2cccnc2)cc1,.,-4%,-6,0.0,.,
COc1ccc(C(=O)Nc2ccc3ccccc3c2)cc1OC,.,.,-9,4.0,.,
CN1CCN(C(CNS(=O)(=O)c2ccc(Br)cc2)c2ccc3c(c2)OCO3)CC1 (stereo not given),.,.,5,-2.5,.,
O=C(Nc1nc2c(s1)CCCC2)c1ccc(N2C(=O)CCC2=O)cc1,.,.,0,-3.0,.,
Cc1sc2nc(CSc3nnc(Cc4cccs4)n3C3CCCCC3)[nH]c(=O)c2c1C,-9,3%,-2,-6.3,-41,Arbovirus inh repeat=-2
C=CCn1c(SCC(=O)N2CCOCC2)nc(O)c(Cc2ccccc2)c1=O,-1,13%,11,0.1,-1,Arbovirus inh repeat=5
COc1ccc(/C=C2\N=C(C)OC2=O)cc1[N+](=O)[O-],.,-3%,-6,0.6,.,
Cc1ccccc1S(=O)(=O)Cc1ccc(C(=O)NCc2cccs2)o1,4,-10%,?,-0.3,-3,
COc1ccccc1/C=C/C=N/NC(=O)CC1C(=O)NN=C1C (stereo not given),.,-4%,-6,2.1,.,
CCOC(=O)C1CCCN(S(=O)(=O)c2ccc(-n3cnnn3)c(C)c2)C1 (stereo not given),.,.,-4,-0.8,.,
CSc1ncc(CN2CCN(C3CCCCC3)C(CCO)C2)cn1 (stereo not given),4,-2%,-2,0.2,.,

# Ordered by SMILES length (ascending): part of the list above
SMILES,Arbovirus inh,Mtb growth,Mtb bLac sens,RecA splice inh,YopH inh,others
Cc1ccc(-n2nnnc2-c2cccnc2)cc1,.,-4%,-6,0.0,.,
CSc1ncc(CN2CCN(C3CCCCC3)C(CCO)C2)cn1 (stereo not given),4,-2%,-2,0.2,.,
CCOC(=O)C1CCCN(S(=O)(=O)c2ccc(-n3cnnn3)c(C)c2)C1 (stereo not given),.,.,-4,-0.8,.,
CN1CCN(C(CNS(=O)(=O)c2ccc(Br)cc2)c2ccc3c(c2)OCO3)CC1 (stereo not given),.,.,5,-2.5,.,

# More records follow.
SMILES,Arbovirus inh,Mtb growth,Mtb bLac sens,RecA splice inh,YopH inh,others
COc1cc(-c2nnc(COC(=O)c3cc(C)no3)o2)cc(OC)c1OC,.,.,6,-3.0,.,
Cc1ccc(S(=O)(=O)NCc2ccccc2)cc1C(=O)NCc1ccccn1,.,.,2,0.5,.,
CC(=O)c1ccc(O)c(CO)c1,2,-20%,-10,-2.2,-37,
CCc1nn(CCCC(=O)NCc2ccc(C)cc2)c(=O)c2cc3occc3n12,.,.,0,-1.4,.,
Cc1cc(C)cc(OCC(=O)NNC(=O)c2ccoc2C)c1,-1,3%,?,-1.3,-22,
COCCN(Cc1ccc(C)c(Br)c1)C(=O)Cn1cnc(S(=O)(=O)N2CCCC2)c1,.,.,5,-1.7,.,
CCOC(=O)CC1=C(C(=O)OCC)C(c2cccnc2)C(C#N)=C(N)O1 (stereo not given),-1,1%,-20,0.4,3,
OCc1nc2c(ccc3ccccc32)[nH]1,.,.,1,0.1,.,
COC(=O)c1ccc(C(=O)OC)c(NC(=O)c2cnc3n(c2=O)CCS3)c1,3,0%,?,-2.8,13,
CCOc1ccc2[nH]c(C)c(CN3CCN(CC)CC3)c(=O)c2c1,2,-29%,-10,-2.2,-33,
COc1ccccc1N1C(=O)c2ccc(C(=O)Nc3ccccc3O)cc2C1=O,.,.,1,-2.7,.,
O=C(COc1ccc2cc(Br)ccc2c1Br)N1CCOCC1,.,.,9,2.8,.,
COc1cc(/C=C/c2nc3ccccc3c(=O)n2-c2ccccc2O)ccc1O,.,.,10,2.6,.,
CCOCCCNc1ncc2c(n1)CC(c1ccc(C)cc1)CC2=O (stereo not given),7,0%,-5,-5.1,-29,
O=C(NCN1C(=O)C2C3C=CC(C3)C2C1=O)Nc1ccccc1O (stereo not given),4,2%,-12,-4.2,.,
CN1C(=O)NC(=O)/C(=C/c2ccc(C(=O)O)cc2)C1=O,.,7%,15,22,.,
Nc1nc2n(n1)C(c1ccco1)CC(c1ccccc1)N2 (stereo not given),6,-5%,-4,2.7,-10,
COc1cccc(C(C)NC(=O)c2ccncc2)c1 (stereo not given),.,.,3,0.9,.,
COc1ccc(-c2nonc2NC(=O)c2ccco2)cc1OC,.,.,-7,1.6,.,
CCC(c1nnc(SCC(=O)Nc2cc(Cl)ccc2C#N)n1C1CCCCC1)N(C)C (stereo not given),10,6%,-1,0.2,-17,
COC(=O)c1sccc1NC(=O)COc1ccccc1Cl,7,20%,50,-1.4,-32,
C[C@@H](Nc1nc(-c2ccccc2)nc2c1oc1ccccc12)C(=O)O,3,1%,14,-1.6,-26,
CCCc1cc(-c2[nH]ncc2-c2ccc(C(=O)OCC)o2)c(O)cc1O,3,6%,17,-4.4,-47,
CCOC(=O)c1[nH]c(C)c(C(=O)Nc2ccc(C)c(Cl)c2)c1C,-3,-1%,-5,-1.4,-1,

# Among those listed so far, 2 have a CF3 group.
SMILES,Arbovirus inh,Mtb growth,Mtb bLac sens,RecA splice inh,YopH inh,others
N/C(=N\O)c1ccc(N2CCN(c3ncccc3C(F)(F)F)CC2)nc1,.,-3%,1,3.1,.,
CCOC(=O)NC(NCc1ccccc1)(C(F)(F)F)C(F)(F)F,5,-2%,-2,0.2,-37,

# More structures.
SMILES,Arbovirus inh,Mtb growth,Mtb bLac sens,RecA splice inh,YopH inh,others
COc1cc(OC)c(OC)cc1/C=C/c1cc(C(=O)O)c2ccccc2n1,4,-3%,-6,0.3,.,
O=C(c1ccco1)N1CCc2[nH]nc(-c3ccccc3)c2C1,.,.,4,3.6,.,
COc1ccc(CCNC(=O)C(C)n2nc(C)c3c(C)n(-c4ccc(C)cc4)nc3c2=O)c(OC)c1 (stereo not given),.,.,-4,5.8,.,
Cc1noc(C)c1C(=O)NCCC1=CCCCC1,1,1%,.,1.8,-22,
CC1CN(c2c3c(nc4ncnn24)CCCC3)CC(C)O1 (stereo not given),3,-10%,-1,0.7,-29,Arbovirus inh repeat=1
Cc1ccc(NC(=O)CSc2nnnn2C)cc1S(=O)(=O)N(C)C,1,-2%,0,-0.3,-21,
C(=N\Nc1nc2ccccc2[nH]1)/c1ccccc1,0,5%,42,-16,.,
COc1ccc(S(=O)(=O)Nc2ccc3c(c2)n(C)c(=O)n3C)cc1,-2,5%,-2,-2.8,.,
CSc1nc2ccccc2n1Cc1cccc([N+](=O)[O-])c1,-11,2%,1,.,-3,
O=C(NC(=S)N1CCN(c2nc(-c3ccccc3)cs2)CC1)c1cncc(Br)c1,-15,?,76,7.0,.,
CCOC(=O)c1c(NC(=O)CSc2nnnn2CC)sc(C)c1C,4,6%,-6,-0.2,-13,
Cc1ccc2c(c1)N(CCC(=O)NCc1ccc3c(c1)OCO3)C(=O)CO2,1,-8%,-5,-3.2,-33,
Cc1ccc(NC(=O)c2ccc(OCC3CCCO3)cc2)nc1 (stereo not given),.,.,1,-7.2,.,
COc1ccccc1-c1nc2cc3ccccc3cc2nc1-c1ccccc1,9,17%,93,8.6,-11,
CCOC(=O)/C(=N\Nc1ccc(Br)cc1)N1CCN(c2ccccc2OC)CC1,-30,?,.,.,.,
CCCC1COC(Cn2cncn2)(c2ccc(Cl)cc2Cl)O1 (stereo not given),0,-4%,3,-7.3,-9,
COc1ccc2[nH]c(=O)c(CN(C)C(=O)COc3ccccc3)cc2c1,1,-2%,-3,-1.4,-43,
Clc1ccc(-c2nc3cnccn3c2NC2CCCC2)cc1,-18,0%,4,-98,-18,
Cc1onc(-c2c(Cl)cccc2Cl)c1C(=O)NCc1ccc(S(N)(=O)=O)cc1,.,.,4,1.1,.,
O=C(O)C1CSC2(c3ccc(F)cc3)CCC(=O)N12 (stereo not given),12,3%,7,1.4,.,
CN(C)CCCOC(=O)N1c2ccccc2C=Cc2ccccc21,.,.,-4,3.0,.,

# An excerpt; the hit share may differ from the screen's.
